B2AR ag: activates human beta-2 adrenergic receptor causing internalization; P07550; response, % (no concentration beside the values); hit rate 0.43% among 340,000; Am2.2-beta2AR cells, FAP receptor internalization, flow cytometry; reference of the scale not given here; AID 504454;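 active = response above a set limit, near 3 SD of response in nonfluorescent compounds, cut at about 42% in these data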;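 note: stock transfer was 100 nL into about 11 µL; a reference agonist was the positive control; negative values mostly stem from fluorescent compounds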
Target sequence (P07550 whole entry, looked up): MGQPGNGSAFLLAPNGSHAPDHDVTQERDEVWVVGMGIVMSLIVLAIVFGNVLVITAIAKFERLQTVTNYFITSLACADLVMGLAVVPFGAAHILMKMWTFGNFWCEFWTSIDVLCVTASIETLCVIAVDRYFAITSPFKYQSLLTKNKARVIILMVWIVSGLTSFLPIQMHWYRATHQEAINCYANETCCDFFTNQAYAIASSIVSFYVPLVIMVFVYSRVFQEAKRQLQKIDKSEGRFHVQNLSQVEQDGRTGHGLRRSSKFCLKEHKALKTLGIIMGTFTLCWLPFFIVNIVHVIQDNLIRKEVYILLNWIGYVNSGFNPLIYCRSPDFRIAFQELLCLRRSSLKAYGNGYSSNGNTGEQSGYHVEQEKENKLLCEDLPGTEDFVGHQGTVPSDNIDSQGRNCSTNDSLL
Calb FLC: affects C. albicans growth with fluconazole | growth inhibition, % (test concentration not listed) | C. albicans CaCi-2 (fluconazole-resistant clinical isolate) + fluconazole, Alamar Blue growth, 48 h | hit rate 0.57% among 300,000 | AID 1979;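 active = most replicates above 75%; inconclusive = exactly half above 75%; inactive = most below 75%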;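 note: all wells also contain fluconazole at 8 µg/ml as a sub-toxic cotreatment; 0% = median of DMSO wells and 100% = median of geldanamycin control wells; wells of about 8 µL received 7.5 nL stock; the first replicate is given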
rRNA inh HTS: inhibitors of bacterial rRNA selective over humanized ribosomes; hit rate 1.6% among 350,000; E. coli WT GFP vs humanized-ribosome RFP mutants, fluorescence, 24 h; stronger effect = lower value; DMSO median 0, no signal -100; GFP signal change (wild-type ribosome), % (no concentration beside the values); AID 720706;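 active = significant combined selectivity score with lowered wild-type GFP, culture density cut under 30%, mutant RFP and density less affected; inactive = any of these conditions unmet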; note: one replicate is shown; some compounds called inactive have numbers as strong as hits
Bfl-1 A1 inh: inhibitors of the anti-apoptotic protein A1, read as caspase activation | MEF A1-2A-BIM cells, Caspase-Glo 3/7 luminescence, 3 h; percent of clofoctol response, vehicle zero | caspase activation, % (concentration not given with the values) | hit rate 0.066% among 330,000 | AID 2462;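 active = over half of replicate activation scores above 10%, or exactly half above 10 with the replicate mean above 10; inconclusive = replicate mean below 10 yet half the replicates above 10; inactive = over half of replicates below 10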;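 note: wells of about 30 µL received 50 nL stock; many hits fall short of the cut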
Beta cell apopt: beta cell apoptosis inhibition | INS-1E cytokine-induced death, ATP luminescence, 48 h; percent of positive-control rescue, neutral wells zero | protection from apoptosis, % (test concentration not listed) | hit rate 0.8% among 300,000 | AID 435005;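 active = all replicates at 75% or more, or half of them and the mean; inconclusive = half reach 75% but not the mean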;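 note: 0% = cytokine-treated negative control wells and 100% = positive control rescue; higher means more ATP so stronger rescue from cytokine killing; wells of about 40 µL received 100 nL stock; the first replicate is given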
LANA-H2A inh: blocks KSHV LANA binding to histone H2A/H2B; Q9QR71; cell-free LANA-H2A/H2B peptide, fluorescence polarization; inhibition, % (test concentration not listed); hit rate 0.6% among 320,000; AID 2629; in the data active = inhibition mostly above about 10%, no sharp cut-off; inactive = mostly below about 6.7%;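 note: stock transfer was 7.5 nL into about 10 µL; 0% = median of vehicle wells and 100% = median of positive control wells; one replicate is shown; the record names a cut of 25% in any replicate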
T cruzi repl: blocks replication of Trypanosoma cruzi | AID 1885 | T. cruzi beta-gal in NIH3T3, luminescence, 90 h | hit rate 1.4% among 300,000 | inhibition, % (test concentration not listed);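 active = mean inhibition across valid replicates above about 55%, limit read from the data; inconclusive = mean below that limit but half or more replicates reach it; inactive = mean below it, under half of replicates reach it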;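 note: signal also drops with host cell toxicity which is not excluded here; 0% = plate median of DMSO wells and 100% = zero luminescence signal; higher percent means less beta-gal luminescence so fewer parasites; stock transfer was 50 nL into about 50 µL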
ALR inh: inhibitors of human sulfhydryl oxidase ALR | purified ALR, DTT oxidation, H2O2 HRP-luminol luminescence | hit rate 3.8% among 290,000 | inhibition, % (test concentration not listed) | P55789;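 active = mean and each replicate at 75% or more; inconclusive = only one of the two met; inactive = neither met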;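 note: stock transfer was 7.5 nL into about 7.5 µL; 0% = neutral wells and 100% = wells with inactivated enzyme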
Target sequence (P55789 whole entry, looked up): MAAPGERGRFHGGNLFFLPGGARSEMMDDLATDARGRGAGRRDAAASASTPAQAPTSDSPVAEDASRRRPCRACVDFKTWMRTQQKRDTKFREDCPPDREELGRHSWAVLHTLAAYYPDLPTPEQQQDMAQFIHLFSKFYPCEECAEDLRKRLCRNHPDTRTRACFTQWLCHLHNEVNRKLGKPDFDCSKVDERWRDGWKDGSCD
rRNA inh HTS OD600: second read-out of rRNA inh HTS, no call of its own (marks repeat the call); OD600 change, %; measured here: OD600 growth;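 optical density of the mix in the first replicate; 0 = DMSO median and -100 = no signal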
rRNA inh HTS RFP: also measured in rRNA inh HTS; calls as there; RFP signal change, %; measured here: RFP humanized mutant strains;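 first replicate; 0 = DMSO median and -100 = no signal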
The depositor's hits bear a star; ? = inconclusive; . = no result given. Not all compounds are listed; rates above refer to the full screens.

Every second line gives: B2AR ag, Calb FLC, rRNA inh HTS, rRNA inh HTS OD600, rRNA inh HTS RFP, Bfl-1 A1 inh, Beta cell apopt, LANA-H2A inh, T cruzi repl, ALR inh
OC1(c2ccccc2)C/C(=N\n2cnnc2)C=C1c1ccccc1 (stereo not drawn)
 : 2, 2, ., ., ., -0.3, -3, -2.8, -17, -10
CCOc1ccccc1C(=O)NCC(=O)OCCCOC(=O)CNC(=O)c1ccccc1OCC
 : 1, -8, -9, -12, 0.1, -0.1, -1, -0.4, 31, 0
COc1cccc(NC(=O)C2C3C=CC4(O3)C2C(=O)N(C2CC2)C4C(=O)NC2CCCCC2C)c1 (stereo not drawn)
 : 3, -37, ., ., ., 0.5, -3, -1.1, -5, 7
Cc1ccc(S(=O)(=O)NC2CCSC2=O)cc1C (stereo not drawn)
 : 6, ., 6, 13, -1.3, -2.1, 11, 1.9, ., .
CCOc1cccc2cc(C(=O)NCc3ccccc3)c(=N)oc12
 : 19, -5, ., ., ., -0.9, 0, -0.5, -3, -6
N/C(=N\OC(=O)c1ccc([N+](=O)[O-])cc1)c1ccccn1
 : -7, 17, 1, 11, -1.1, 2.2, 7, 0.7, ., -7
COc1cc(/C=N/NC(=O)CN(Cc2ccco2)S(=O)(=O)c2ccccc2)ccc1O
 : -3, -9, ., ., ., -1.0, 0, 1.1, 0, 100*
N#CCCCSc1nnc(-c2ccc(Cl)cc2)n1-c1ccccc1
 : -8, 21, 2, -1, -4.2, -0.3, 5, 7.4, 1, -3
CCC1CCCCN1C(=O)COc1ccc2c(c1)OCO2 (stereo not drawn)
 : -4, 7, 6, -1, -0.9, -1.1, -5, 6.9, 1, -60
Cc1ccc(/C=C/C(=O)O)cc1S(=O)(=O)NCCCC(=O)O
 : 2, 1, ., ., ., 0.0, -5, 5.7, -9, -4
Cc1cccc(C(=O)Nc2nnc(-c3ccncc3)o2)c1
 : -2, 59, -40, -73, -7.3, -0.4, -1, 1.8, -7, 97*
COc1ccc(Nc2nc3ccccc3c(=O)s2)c(OC)c1
 : -4, -2, ., ., ., -0.5, 11, 1.3, -11, 0
COc1ccc(CNC(=O)COC(=O)C2CCC(C(C)(C)C)CC2)cc1 (stereo not drawn)
 : -2, -2, ., ., ., 1.3, -4, 3.8, -11, .
CCOC(=O)N1CCC(NCCNC(=O)c2ccc(F)c(F)c2)CC1
 : -4, ., 14, 21, -2.4, 0.7, -3, -6.6, ., -6
O=C(CN1CCOCC1)Nc1cccc(C(F)(F)F)c1
 : -3, -12, 14, 8, 2.2, 0.4, -11, 1.2, -29, 0
Cc1cccc(NC(=O)CSc2nnc(NC(=O)c3ccco3)s2)c1
 : -6, 20, 3, 16, -3.5, -0.9, 0, 0.7, -1, -1
c1csc(CSc2nnc3sc4ccccc4n23)c1
 : -2, -12, ., ., ., -0.3, -1, 2.6, 12, 2
O=C(CCS(=O)(=O)c1ccc(Br)cc1)NCCc1ccc(Cl)cc1
 : -8, -7, -3, 3, 1.5, -0.4, -1, 1.1, -14, -8
C=C(C)C1Cc2c(C)nn(-c3ccccc3)c2C1 (stereo not drawn)
 : -11, -6, ., ., ., -0.6, -1, 3.3, -16, 44
O=C(CCNC(=O)c1ccc([N+](=O)[O-])cc1)Nc1cccc(S(=O)(=O)N2CCOCC2)c1
 : 17, ., -13, 2, -3.2, 0.3, 2, -3.6, ., -2

Other records follow:
Every second line gives: B2AR ag, Calb FLC, rRNA inh HTS, rRNA inh HTS OD600, rRNA inh HTS RFP, Bfl-1 A1 inh, Beta cell apopt, LANA-H2A inh, T cruzi repl, ALR inh
CCN(CC(=O)NC1CCCCCC1)S(=O)(=O)c1ccccc1
 : -15, ., ., ., ., 0.2, -4, 0.2, 13, -2
Cc1c(NC(=O)C23CC4CC(CC(C4)C2)C3)c(=O)n(-c2ccccc2)n1C
 : -13, -9, 19, 12, 1.8, -0.4, -2, -13, 2, -8
CSCCC(NC(=O)c1c(C)oc2c1CCCC2)C(=O)O (stereo not drawn)
 : 0, -6, ., ., ., 1.2, -2, 1.0, -9, 5
CCOc1cccc(C(=O)NC(=S)Nc2ccc(N3CCN(CC)CC3)cc2)c1
 : -4, -12, 4, 5, -0.6, 1.1, 5, -3.1, 49, 16
Cn1c(SCc2ccccc2)nnc1-c1ccc(O)cc1
 : 3, -3, 8, -4, 0.0, -2.0, 10, -2.3, -4, -17
O=C(COC(=O)c1cccnc1Cl)c1ccc(Cl)s1
 : -4, ., 2, 9, -2.2, 1.2, -10, -1.6, ., .
C#CCOCCOCCOCCNc1nc(N2CCN(C(=O)[C@H](CCCCN)n3cc([C@@H](N)CO)nn3)CC2)nc(N2CCN(C(=O)[C@H](Cc3ccc(O)cc3)n3cc([C@@H](N)CC(C)C)nn3)CC2)n1
 : -2, 6, -1, 1, 2.5, 0.7, -3, 0.5, -10, .
CCC(=O)OCn1nnc2ccccc2c1=O
 : -1, -2, 11, -1, -0.7, 1.9, -10, 4.1, -5, -2
COc1ccc(Nc2ccc(C(N)=O)cc2[N+](=O)[O-])cc1
 : -3, -1, 12, -10, -0.1, 0.4, -8, -0.2, -9, -2
O=C(NCC(F)(F)F)Nc1ccccn1
 : -1, 22, ., ., ., -0.5, -2, 9.9, -10, -1
O=c1[nH]cnc(O)c1C(c1cccc([N+](=O)[O-])c1)c1c(O)nc[nH]c1=O
 : -10, 2, 12, 6, -2.4, 0.0, -1, 4.1, -3, 0
CC(C)c1cc(-c2cc(C(=O)Nc3ccccc3)on2)nc(NCC2CC2)n1
 : ., 2, ., ., ., -0.3, -4, -3.2, 25, 1
CC1(C)CC(=O)C=C(c2ccc(Oc3ccccc3)cc2)C1
 : -15, ., -25, -51, -6.1, -1.0, 10, 1.1, ., 0
CC(C)(C)NC(=O)C(c1ccncc1)N(C(=O)Cn1nnc(-c2ccc(F)cc2)n1)c1ccc(F)cc1 (stereo not drawn)
 : -5, 6, 15, 4, -1.0, -0.5, 0, -0.1, -1, -2
Cc1ccc(-c2nnc(N)o2)cc1
 : 0, -2, ., ., ., -0.3, ., 2.3, -1, -9
CCCC1=[N+](CC(=O)c2ccc(C)cc2)CCn2cccc21
 : 11, 4, ., ., ., 0.2, 1, -2.4, 22, 8
CCOC(=O)N1CCN(C(=O)/C(=C/c2cccc3ccccc23)NC(=O)c2ccc(OC)cc2)CC1
 : 5, -3, -11, -16, 21, 0.3, -1, 1.1, ., -7
COC(=O)c1ccc(Oc2cc(C)nc(SC)n2)cc1
 : -2, 25, ., ., ., 0.6, 0, -0.2, 8, -16
O=C(CCc1nnc(CCCCc2ccccc2)o1)N1CCCC(O)C1 (stereo not drawn)
 : 9, -10, 7, -1, 1.6, 0.6, 8, 3.6, -9, -2
COC(=O)C1ON2OC(C(=O)OC)C(C(=O)OC)C2C1CC(C)=O (stereo not drawn)
 : -2, 7, ., ., ., 0.9, ., 3.5, 12, -1

Further entries follow:
Every second line gives: B2AR ag, Calb FLC, rRNA inh HTS, rRNA inh HTS OD600, rRNA inh HTS RFP, Bfl-1 A1 inh, Beta cell apopt, LANA-H2A inh, T cruzi repl, ALR inh
CCCNc1c(N)c(=O)c1=O
 : 1, 0, 3, 6, 0.0, -0.4, 0, -0.6, 19, -11
COc1ccc(CCC(=O)NNC(=S)NCc2ccc(F)cc2)cc1
 : -1, 14, -29*, -19*, -1.1*, 0.8, -3, 2.8, -4, -6
COc1ccc(C(C)=O)cc1CSc1nnc(-c2ccncc2)o1
 : 5, 2, 2, -6, 2.1, -0.9, ., 1.9, -1, .
COc1ccc(NS(=O)(=O)c2cc(NC(=O)c3ccccc3)ccc2N2CCOCC2)cc1
 : -2, ., -3, -23, -6.3, 0.3, 10, -2.5, ., -7
COc1ccc(CN2CCN(C3CCC3)CC2CCO)cc1C (stereo not drawn)
 : 5, 9, 11, 3, 1.3, -0.6, -4, -0.3, -12, .
COc1ccc(-n2nnc3c(SCc4ccccc4)ncnc32)cc1
 : -7, -6, ., ., ., -4.5, 1, -8.9, 13, -12
Cc1no[n+]([O-])c1COc1ccc(/C=N/n2nnnc2N)cc1
 : 3, 13, ., ., ., ?, -2, 4.1, -9, .
CCOc1ccc(-c2c(C(=O)N/N=C(\C)c3ccncc3)nnn2-c2nonc2N)cc1
 : 0, 2, 3, 6, 2.5, 0.4, 5, 3.2, 29, -3
NC1=NC(c2ccc(Cl)cc2)n2c(nc3ccccc32)N1 (stereo not drawn)
 : -2, -6, ., ., ., -0.4, -1, 0.7, -11, -2
CCC(NS(=O)(=O)c1ccc(OC)cc1)C(=O)O (stereo not drawn)
 : 7, -7, ., ., ., 2.2, 1, 4.3, -10, .
Cc1ccc(NS(=O)(=O)c2cc([N+](=O)[O-])ccc2NNC(=S)Nc2cccc(Cl)c2)c(C)c1
 : -17, -6, ., ., ., 0.2, 7, 0.3, 18, 15
Cc1ccc(OCc2cc(C(=O)N3CCC(C(O)C(C)C)CC3)no2)cc1C (stereo not drawn)
 : -5, 1, 0, 1, 3.4, -1.4, -5, -3.8, 0, -5
COc1ccc2oc(=O)c(-c3nc4ccccc4o3)cc2c1
 : -26, -28, ., ., ., -2.5, -5, 15, -7, .
CCOc1ccc2nc(SCC(=O)N(C)C3CCS(=O)(=O)C3)[nH]c2c1 (stereo not drawn)
 : 2, 15, ., ., ., 1.0, 1, 2.6, 3, .
O=C(NCc1ccco1)/C(=C\c1ccccc1)NC(=O)c1ccccc1
 : -8, 8, -4, 4, 0.4, -0.4, 3, -5.0, -2, 10
Cc1noc(C)c1COc1cccc(C(=O)N2CCc3ccccc32)c1
 : -2, 59, -41*, 21*, -4.7*, 0.0, -2, 2.5, -6, -24
Cc1nc2sc(C(c3ccco3)N3CCc4ccccc4C3)c(O)n2n1 (stereo not drawn)
 : 7, 7, ., ., ., -0.4, -6, -0.4, -6, 11
Cc1ccc2c(c1)c1cccc3c1n2CCN3CCC(N)=O
 : 34, 2, ., ., ., 1.7, 7, 5.1, 6, 15
O=C(Cn1c(-c2ccccn2)nc2ccccc21)NCCN1CCOCC1
 : 9, -14, ., ., ., -0.2, -9, 2.2, ., -5
CC(C)(C)c1ccc(C(=O)Nc2ccc(CC(=O)O)cc2)o1
 : -4, -1, ., ., ., -0.5, -6, -2.8, -15, 7
Cc1c(NC(=O)CN2CCN(c3ccc(F)cc3)CC2)c(=O)n(-c2ccccc2)n1C
 : 9, 3, -8, -1, -3.3, 2.4, -1, 3.4, -7, 26
COc1ccccc1CN1CC(C(=O)NCc2cc(C(C)C)no2)CCC1=O (stereo not drawn)
 : 2, 12, 6, 6, -0.9, -0.6, 1, -0.3, -8, -7
CN(C)CC(C)(C)CNC(=O)CC1C(=O)NCCN1Cc1ccc(-c2ccccc2)cc1 (stereo not drawn)
 : -2, -3, 13, 11, 3.0, 0.8, -5, 1.6, -8, -33
